Compound activity as filed in PubChem.
miR-21 reporter = miR-21 reporter, rising signal. HeLa miR-21 FLuc reporter, luciferase, 48 h. Potency, µM (top dose mostly 38.3 µM), for inactives: top-dose reporter change, positive = more light. 340,000 tested, under 10 active; active = well fitted rising curve with a large enough effect; inconclusive = small, poorly fitted or top-dose-only effect; inactive = no such curve, though single readings can be large or run the other way;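 further: % of control where 0% means no effect; miR-21 action dims this reporter so a rising signal means less miR-21 action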
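HeLa cells endogenously expressing miR-21, stably carrying CMV-driven firefly luciferase with a downstream miR-21 binding site, 2000 cells/well. Titrations up to approximately 40 uM, 48 hours; luciferase luminescence read.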
Rango-impB inh = inhibitors of Rango-importin beta complex formation. Rango CFP/YFP FRET sensor + importin beta, 45 min. Potency, µM (doses to about 92.2 µM), without a hit: top-dose inhibition of complex formation. hit rate 0.031% among 340,000. AID 540263; active = rising FRET ratio curve, often small or poorly fitted; inconclusive = mostly compound fluorescence or quenching in the first reads; inactive = flat curves in all reads;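 further: potency means the concentration at half of the fitted maximal effect; 0% = DMSO wells and 100% = buffer wells lacking importin beta; nearly all actives have a fitted effect of over 15% in size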
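Inhibition scored from the CFP 486 nm/YFP 530 nm FRET ratio 45 min after adding 0.125 microM importin beta to 50 nM Rango biosensor preincubated 5 min with compound (room temperature, PBS with DTT, Tween-20, BSA). No-importin wells as positive control.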
Rango release inh = inhibitors of RanGTP-induced Rango-importin beta complex dissociation; Biochemical FRET Rango-importin beta, RanGTP-induced dissociation; O95149+P62826; Potency, µM (series often up to 46.1 µM), for the others: at the highest dose activity change, negative = inhibition; hit rate 0.071% among 340,000; active means falling FRET ratio curve, often poorly fitted, with flat reads before Ran was added; inconclusive means other falling curves, or compound fluorescence or quenching; inactive means flat or rising ratio curve;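 further: potency means the concentration at half of the fitted maximal effect; % of control where 0% means no effect; nearly all actives have a fitted effect of over 45% in size; -100% = wells without RanGTP and RCC1; the record marks most hits as doubtful in a second field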
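Two FRET readings bracket the reaction: one 5 min after compound meets Rango–importin beta, another 45 min after RanGTP-RCC1 (0.6 uM Ran, 0.2 uM RCC1, 2 mM GTP) is added. Only the second defines inhibition.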
GLA inh pH 4.5 = alpha-galactosidase A (human) inhibition, pH 4.5; P06280; purified enzyme, 4-MU-alpha-Gal fluorescence, pH 4.5; activity change, negative = inhibition, % at 105 µM; 230,000 tested, under 10 active; AID 1467; inconclusive = small, poorly fitted or top-dose-only inhibition, or a rising curve; inactive = flat fitted curve, though single readings scatter; no compound was filed as active;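 further: 0% = full activity with enzyme and -100% = basal without enzyme; dose as in the result columns while the protocol names 77 µM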
Target sequence (P06280 whole entry, looked up): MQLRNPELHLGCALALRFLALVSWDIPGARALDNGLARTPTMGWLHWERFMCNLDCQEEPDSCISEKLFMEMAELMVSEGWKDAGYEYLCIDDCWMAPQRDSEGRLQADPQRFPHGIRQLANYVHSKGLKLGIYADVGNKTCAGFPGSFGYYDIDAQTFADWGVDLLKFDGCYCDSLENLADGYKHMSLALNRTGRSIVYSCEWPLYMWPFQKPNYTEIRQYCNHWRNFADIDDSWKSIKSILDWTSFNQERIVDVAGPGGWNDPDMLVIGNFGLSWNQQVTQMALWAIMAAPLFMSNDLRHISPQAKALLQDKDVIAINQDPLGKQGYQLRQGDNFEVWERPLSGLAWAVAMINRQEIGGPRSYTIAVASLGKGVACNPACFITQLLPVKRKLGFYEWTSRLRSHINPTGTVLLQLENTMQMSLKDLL
The depositor's hits bear a star; & = joins results of further samples. The list is partial; count on the stated rates, not on these rows.

`CC(C)Oc1ccccc1OCCCCn1cnc2ccccc2c1=O` gave miR-21 reporter -10%, Rango-impB inh 0.2%, Rango release inh -4% and GLA inh pH 4.5 3.
Screening CCOC(=O)N1CCN(S(=O)(=O)N2CCCC(C(=O)NCc3ccccc3Cl)C2)CC1 (stereo not given) returned miR-21 reporter 4%, Rango-impB inh -1.3% and Rango release inh 0%.
`CN(CC(=O)Nc1ccccc1Cl)C(=O)COC(=O)c1cnccn1` gave miR-21 reporter -3%, Rango-impB inh 4.4% and Rango release inh -15%.
`O=C(COC(=O)Cc1ccc(F)cc1)NC1CCCCCC1` gave Rango-impB inh -0.8% and Rango release inh -5%.
`CCCOc1ccc(OC(=O)c2ccc(Br)o2)cc1` gave miR-21 reporter -7%, Rango-impB inh 3.8%, Rango release inh -3% and GLA inh pH 4.5 -7.
Screening CSCCC(=O)NC1CCCN(CCc2ccccc2)C1 (stereo not given) returned miR-21 reporter 4%, Rango-impB inh 2.6% and Rango release inh -7%.
`CN1CCc2c(sc3nc(SCC(=O)NCc4ccco4)n(-c4ccccc4)c(=O)c23)C1` gave miR-21 reporter -44%, Rango-impB inh 2.4% and Rango release inh 28%.
Cc1ccccc1-c1nc(CN2CCC(C(=O)NC3CCN(Cc4ccccc4)CC3)CC2)c(C)o1 was read as Rango-impB inh 5.1% and Rango release inh 18%.
For CC[C@@H](C)[C@@H]1CN([C@@H](CN2CCC[C@H]2CN2C(N)=NC[C@H]2C(C)C)C(C)C)C(=N)N1CCc1ccc(Cl)c(Cl)c1 the results were Rango-impB inh 0.0% and Rango release inh -1%.
For Cc1ccc(OC(=O)COc2ccccc2C)c(-n2nc3ccccc3n2)c1 the results were miR-21 reporter -63%, Rango-impB inh -0.5%, Rango release inh 11% and GLA inh pH 4.5 -18.
For CCCC1(CCC)NC(=O)N(CC(=O)c2cc(C)n(-c3ccc4c(c3)OCO4)c2C)C1=O the results were miR-21 reporter -9%, Rango-impB inh 0.2%, Rango release inh -7% and GLA inh pH 4.5 -19.
CCN1CCN(C(=O)c2ccccc2Nc2ccc(SC(F)F)cc2)CC1 was read as miR-21 reporter 0%, Rango-impB inh 1.1%, Rango release inh -5% and GLA inh pH 4.5 -5.
`CSc1ccc(CN(C)C(=O)C23CC4CC(CC(Cl)(C4)C2)C3)cc1` gave miR-21 reporter 16%, Rango-impB inh 2.1% and Rango release inh -4%.
For Cc1cc(CNC(=O)COc2ccc([N+](=O)[O-])cc2)c2ccccc2n1 the results were miR-21 reporter 4%, Rango-impB inh -0.6%, Rango release inh -6% and GLA inh pH 4.5 1.
For CCOC(=O)C1=C(C)N(C[C@@H]2CC[C@@H](Cc3ccc(-c4ccccc4)cc3)O2)C(=O)NC1c1ccc([N+](=O)[O-])cc1 (stereo not given in full) the results were Rango-impB inh 0.4% and Rango release inh 0%.
Screening O=[N+]([O-])c1ccc(S(=O)(=O)NCCN2CCOCC2)cc1 returned miR-21 reporter -38%, Rango-impB inh -1.3%, Rango release inh 9% and GLA inh pH 4.5 -1.
COc1ccc([N+](=O)[O-])cc1NC(=O)c1cccs1 was read as miR-21 reporter -1%, Rango-impB inh 4.7%, Rango release inh 1% and GLA inh pH 4.5 -1.
For CCOC(=O)CNS(=O)(=O)c1cc(-c2nnc(Nc3ccc4c(c3)OCO4)c3ccccc23)ccc1C the results were miR-21 reporter 13%, Rango-impB inh inconclusive, Rango release inh 0% and GLA inh pH 4.5 1.
`CCC(=O)Nc1ccc2c(c1)OCCO2` gave miR-21 reporter -6%, Rango-impB inh -1.0%, Rango release inh 6% and GLA inh pH 4.5 6.
For O=C(O)C1C2C=CC(C2)C1C(=O)NCCCN1CCOCC1 (stereo not given) the results were miR-21 reporter 0%, Rango-impB inh 5.8%, Rango release inh -1% and GLA inh pH 4.5 3.
Screening O=C(O)C(Cc1ccccc1)N1C(=O)c2ccccc2C1=O (stereo not given) returned miR-21 reporter 4%, Rango-impB inh -1.4%, Rango release inh 4% and GLA inh pH 4.5 2.
For COCCCNC(=O)CCCC(=O)NCCCOC the results were miR-21 reporter 0%, Rango-impB inh 0.8%, Rango release inh -15% and GLA inh pH 4.5 -6.
COc1ccc(COc2cc(-c3cccc(OC)c3)nc3ccc(N)cc23)cc1 was read as miR-21 reporter -5%, Rango-impB inh 0.1%, Rango release inh inconclusive and GLA inh pH 4.5 4&-6.
`CC(C)(C)c1nc2c(s1)CCc1onc(-c3ccc(Br)cc3)c1-2` gave Rango-impB inh 0.4% and Rango release inh -12%.

3 neighbouring records already listed, quoted:
`CSc1ccc(CN(C)C(=O)C23CC4CC(CC(Cl)(C4)C2)C3)cc1` gave miR-21 reporter 16%, Rango-impB inh 2.1% and Rango release inh -4%.
For Cc1cc(CNC(=O)COc2ccc([N+](=O)[O-])cc2)c2ccccc2n1 the results were miR-21 reporter 4%, Rango-impB inh -0.6%, Rango release inh -6% and GLA inh pH 4.5 1.
For CCOC(=O)C1=C(C)N(C[C@@H]2CC[C@@H](Cc3ccc(-c4ccccc4)cc3)O2)C(=O)NC1c1ccc([N+](=O)[O-])cc1 (stereo not given in full) the results were Rango-impB inh 0.4% and Rango release inh 0%.

(continued)
Screening Nc1ncc2c(n1)-c1ccoc1CC2 returned miR-21 reporter 5%, Rango-impB inh 0.2% and Rango release inh 14%.
`Cc1ccc([N+](=O)[O-])cc1NC(=S)NC(=O)c1ccco1` gave miR-21 reporter 0%, Rango-impB inh -0.5%, Rango release inh 9% and GLA inh pH 4.5 3.
Cc1cc(C(=O)NNc2ccc(F)cc2)no1 was read as miR-21 reporter 15%, Rango-impB inh inconclusive, Rango release inh -26% and GLA inh pH 4.5 -1.
Cc1ccccc1/C=C/c1nc2ccccc2c(=O)n1Cc1ccccc1 was read as miR-21 reporter -4%, Rango-impB inh 0.7%, Rango release inh 4% and GLA inh pH 4.5 -4.
For COc1cc(/C=C/C(=O)O)cc(S(=O)(=O)NCCO)c1OC the results were miR-21 reporter -1%, Rango-impB inh -0.6%, Rango release inh 2% and GLA inh pH 4.5 -6.
Screening O=C(c1ccccn1)N(c1ccccc1)C1(C(=O)NC2CCCCC2)CCCCC1 returned miR-21 reporter 5%, Rango-impB inh 7.1%, Rango release inh 4% and GLA inh pH 4.5 1.
`CC(Oc1ccccc1)c1ccnn1S(C)(=O)=O` (stereo not given) gave miR-21 reporter -4%, Rango-impB inh 7.5%, Rango release inh -21% and GLA inh pH 4.5 0.
For O=C1CN(c2ccccc2F)C(=O)CN1c1ccccc1F the results were miR-21 reporter -5%, Rango-impB inh -0.2%, Rango release inh 17% and GLA inh pH 4.5 -5.
For O=C(NCc1cn2ccccc2n1)c1ccc(Br)o1 the results were miR-21 reporter -7%, Rango-impB inh -1.1%, Rango release inh 6% and GLA inh pH 4.5 5.
CCOc1cc(/C=N/NC(=O)c2cc(-c3cccnc3)nc3ccccc23)ccc1O was read as miR-21 reporter 4%, Rango-impB inh 3.2%, Rango release inh -4% and GLA inh pH 4.5 3.
Screening CC(C(=O)NC(C)(C)C)N1C(=O)c2cccc3cccc(c23)C1=O (stereo not given) returned miR-21 reporter 0%, Rango-impB inh -3.1%, Rango release inh -14% and GLA inh pH 4.5 5.
`O=C(Nc1nccs1)c1cccc(S(=O)(=O)N2CCCC2)c1` gave miR-21 reporter 6%, Rango-impB inh 4.9% and Rango release inh 0%.

Retrieved one by one from the list above (four):
For COc1cc(/C=C/C(=O)O)cc(S(=O)(=O)NCCO)c1OC the results were miR-21 reporter -1%, Rango-impB inh -0.6%, Rango release inh 2% and GLA inh pH 4.5 -6.
Cc1ccccc1/C=C/c1nc2ccccc2c(=O)n1Cc1ccccc1 was read as miR-21 reporter -4%, Rango-impB inh 0.7%, Rango release inh 4% and GLA inh pH 4.5 -4.
`CC(Oc1ccccc1)c1ccnn1S(C)(=O)=O` (stereo not given) gave miR-21 reporter -4%, Rango-impB inh 7.5%, Rango release inh -21% and GLA inh pH 4.5 0.
Screening Nc1ncc2c(n1)-c1ccoc1CC2 returned miR-21 reporter 5%, Rango-impB inh 0.2% and Rango release inh 14%.

Remaining list, next part.
COC(=O)c1ccc(NCCC(=O)O)cc1 was read as miR-21 reporter -2%, Rango-impB inh 9.8%, Rango release inh -13% and GLA inh pH 4.5 3.
For O=C1CCCN1c1ccc(S(=O)(=O)NCCc2ccc(Cl)cc2)cc1 the results were miR-21 reporter -1%, Rango-impB inh -4.7%, Rango release inh 11% and GLA inh pH 4.5 1.
COc1ccc(CC(=O)OCC(=O)Nc2cc(S(=O)(=O)N3CCOCC3)ccc2N2CCCC2)cc1 was read as miR-21 reporter 1%, Rango-impB inh -2.1%, Rango release inh 0% and GLA inh pH 4.5 5.
`CCN1CCN(Cc2coc3ccc(C)cc3c2=O)CC1` gave miR-21 reporter -16%, Rango-impB inh 12%, Rango release inh -20% and GLA inh pH 4.5 0.
Screening O=C(CN1CCN(CC(=O)Nc2ccc3c(c2)OC2(CCCCC2)O3)CC1)Nc1cccc(F)c1 returned Rango-impB inh -1.2% and Rango release inh -6%.
`CCOc1ccc(C(=O)NCC(=O)NC(C)c2ccc(-n3ccnc3)cc2)cc1OCC` (stereo not given) gave miR-21 reporter 2%, Rango-impB inh 0.0% and Rango release inh 12%.
Screening Cc1ccc(C2=NS(=O)(=O)N(C)C(C(=O)NCc3ccccc3)=C2)cc1 returned miR-21 reporter -3%, Rango-impB inh -3.9% and Rango release inh 20%.
For COC(=O)c1cccc(NC(=O)/C=C/c2ccc3c(c2)OCO3)c1 the results were miR-21 reporter 25%, Rango-impB inh 2.1%, Rango release inh 14% and GLA inh pH 4.5 -14.
Cc1ccc(NC(=O)C2C3CCCCC32)cc1[N+](=O)[O-] (stereo not given) was read as miR-21 reporter -61%, Rango-impB inh 4.8% and Rango release inh 0%.
Cc1ccc(NC(=O)Cn2cnc([N+](=O)[O-])c2)cc1C was read as miR-21 reporter 5%, Rango-impB inh 5.9% and Rango release inh 1%.
`O=Cc1ccc2cccnc2n1` gave miR-21 reporter -8%, Rango-impB inh inconclusive, Rango release inh -7% and GLA inh pH 4.5 6.
`COCC1CCCN(C(=O)c2cc(COc3ccc4ncccc4c3)on2)C1` (stereo not given) gave miR-21 reporter 0%, Rango-impB inh -2.7% and Rango release inh 7%.
Screening CCOc1ccccc1NC(=O)NC(=O)N(C)S(=O)(=O)c1ccc(C)cc1 returned miR-21 reporter 11%, Rango-impB inh -0.7%, Rango release inh -12% and GLA inh pH 4.5 5.
For CCC1CCCCN1CCCNC(=O)c1cn(C)c2ccc(S(=O)(=O)N3CCOCC3)cc2c1=O (stereo not given) the results were miR-21 reporter -5%, Rango-impB inh 4.4% and Rango release inh 17%.
O=C(O)CCCc1ccccc1 was read as miR-21 reporter -3%, Rango-impB inh -0.2%, Rango release inh 0% and GLA inh pH 4.5 7.
Screening O=C(COc1ccccc1)NCC(=O)N/N=C/c1ccc(Br)cc1 returned miR-21 reporter -1%, Rango-impB inh -0.8% and Rango release inh 12%.
Cc1ccsc1-c1n[nH]c(=S)n1CC(C)C was read as miR-21 reporter -2%, Rango-impB inh 1.6%, Rango release inh 4% and GLA inh pH 4.5 3.
O=C(CNC(=O)COc1ccccc1)NCCc1ccccn1 was read as miR-21 reporter 3%, Rango-impB inh 7.9%, Rango release inh 4% and GLA inh pH 4.5 -7.
`CC(Sc1nnc(-c2cccs2)n1Cc1ccccc1)C(=O)NCc1ccc2c(c1)OCO2` (stereo not given) gave miR-21 reporter 2%, Rango-impB inh -3.8%, Rango release inh -6% and GLA inh pH 4.5 0.
Screening Cc1ccnc(NC(=O)c2cc([N+](=O)[O-])cc([N+](=O)[O-])c2)c1 returned miR-21 reporter -6%, Rango-impB inh 0.6%, Rango release inh 1% and GLA inh pH 4.5 1.
CCOC(=O)c1c(OCCO)noc1N was read as miR-21 reporter 9%, Rango-impB inh -0.8%, Rango release inh 0% and GLA inh pH 4.5 8.
`CCCNC(=O)Nc1ccc2c(c1)N(C)C(=O)c1ccccc1S2` gave miR-21 reporter 3%, Rango-impB inh 0.6%, Rango release inh -15% and GLA inh pH 4.5 2.
Screening CCn1cc(S(=O)(=O)Nc2ncccn2)cn1 returned miR-21 reporter 4%, Rango-impB inh 2.7% and Rango release inh 18%.
